Compound activity: PubChem, several laboratories
Mtb betalactam = beta-lactam sensitization of Mtb H37Rv; M. tuberculosis H37Rv growth with meropenem, percent inhibition; hits of this screen are not shown here; inhibition, % at 25 µM; 330,000 tested, 0.27% active;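 active = about 74% or more and at least 40 points above the plate without the antibiotic, then above 30% in a dose series; inconclusive = first-round hits that could not be retested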;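 note: growth measured after seven days incubation then overnight dye step; 0% = bacteria only wells and 100% = bacteria with antibiotic; twin plates without the antibiotic show which effects depend on it; some results filed as inactive read as strong as hits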
RecA splice inh = blocks M. tuberculosis RecA intein splicing; inhibition, %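 (about 9 µM by stock and volumes)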; P9WHJ3; AID 2221; 290,000 tested, 0.75% active; cell-free RecA intein splicing, fluorescence; in the data active = inhibition above about 30%; inconclusive = no clear call, values can overlap the other calls;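 note: 0% = vehicle wells and 100% = reference inhibitor control wells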
Target sequence (P9WHJ3 whole entry, looked up, canonical isoform): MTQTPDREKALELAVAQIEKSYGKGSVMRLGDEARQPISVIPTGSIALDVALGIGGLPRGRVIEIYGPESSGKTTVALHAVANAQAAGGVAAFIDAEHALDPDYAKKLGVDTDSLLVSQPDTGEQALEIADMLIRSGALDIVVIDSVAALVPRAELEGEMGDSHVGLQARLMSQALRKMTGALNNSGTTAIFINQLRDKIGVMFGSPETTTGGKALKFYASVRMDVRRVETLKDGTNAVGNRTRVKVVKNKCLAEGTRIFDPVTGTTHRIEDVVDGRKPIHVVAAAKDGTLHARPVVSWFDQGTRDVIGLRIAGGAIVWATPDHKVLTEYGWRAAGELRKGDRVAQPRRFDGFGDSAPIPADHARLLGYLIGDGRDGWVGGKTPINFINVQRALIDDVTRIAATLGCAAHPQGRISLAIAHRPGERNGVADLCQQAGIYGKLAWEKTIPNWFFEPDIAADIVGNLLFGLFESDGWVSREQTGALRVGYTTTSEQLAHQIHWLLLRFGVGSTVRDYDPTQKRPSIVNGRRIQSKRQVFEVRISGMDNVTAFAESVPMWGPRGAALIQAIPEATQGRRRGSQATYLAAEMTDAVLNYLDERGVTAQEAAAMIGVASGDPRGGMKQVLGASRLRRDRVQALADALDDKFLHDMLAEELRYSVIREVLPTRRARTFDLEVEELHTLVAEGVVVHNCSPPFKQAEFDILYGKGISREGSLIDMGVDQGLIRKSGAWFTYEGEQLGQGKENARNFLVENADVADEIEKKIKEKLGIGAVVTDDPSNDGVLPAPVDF
Mtb H37Rv = M. tuberculosis H37Rv growth inhibitors, H37Rv strain (AID 1626). M. tuberculosis H37Rv growth inhibition; higher % means a stronger effect. inhibition, % at 10 µM; hits with a dose series show IC50 in µM. 220,000 tested, 0.95% active;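 active = confirmed in a dose series; inconclusive = inhibition above 80% but not taken into the dose series; inactive = below 80% or under 30% at every dose of the series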;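 note: bacteria incubated seven days before Alamar blue readout; 0% = bacteria only wells and 100% = bacteria with antibiotic wells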
YopH PTP inh = inhibitors of Yersinia enterocolitica YopH tyrosine phosphatase; inhibition, %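 (about 10 µM by stock and volumes)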; fluorescence Ex485/Em525; 140,000 tested, 0.16% active; AID 898;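 active = inhibition of 50% or more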;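 note: controls were vehicle for no effect and minimum signal wells for full effect; inactives centre near -20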
Arbovirus inh = arbovirus infection inhibition. arbovirus infection cell-based antiviral screen. inhibition, % at 10 µM. 200,000 tested, 0.37% active. AID 1251;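 active = inhibition from about 30%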;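 note: bluetongue infection of BSR cells; cell survival read as ATP light after 72 h; 0% = infected wells without compound and 100% = uninfected wells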
Arbovirus inh repeat = also measured in Arbovirus inh; calls as there; inhibition, %; measured here: 10K subset replicate screen; many hits read low in the repeat;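 first of two repeat runs on a subset; 0% = infected and 100% = uninfected wells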
Active calls of the source: *; ? = inconclusive; . = no result given. Not all compounds are listed; the hit share may differ from the screen's.

Start of the listing, in advance:
SMILES | Mtb betalactam | RecA splice inh | Mtb H37Rv | YopH PTP inh | Arbovirus inh | others
COc1ccccc1OCc1ccc(C(=O)Nc2ccncc2)o1 | 17 | 1.6 | -7% | 8 | 5
Cc1ccc(N(CCC(=O)O)S(=O)(=O)c2ccc(C)cc2)cc1 | 73 | 0.2 | -7% | -53 | 0
Cc1c(NC(=O)c2ccc(S(=O)(=O)N3CCOCC3)cc2)cccc1[N+](=O)[O-] | -2 | 6.9 | . | . | .
N#C/C(=C1/CCCCCN1)c1nnc2n1CCCCC2 | -6 | 0.9 | -3% | -38 | 4 | Arbovirus inh repeat=0
Cc1nc2ccccc2n1CC(=O)OCC(=O)NCc1ccccc1 | 10 | -0.1 | -4% | . | -6

Main list, from the start:
SMILES | Mtb betalactam | RecA splice inh | Mtb H37Rv | YopH PTP inh | Arbovirus inh | others
COc1ccccc1OCc1ccc(C(=O)Nc2ccncc2)o1 | 17 | 1.6 | -7% | 8 | 5
Cc1ccc(N(CCC(=O)O)S(=O)(=O)c2ccc(C)cc2)cc1 | 73 | 0.2 | -7% | -53 | 0
Cc1c(NC(=O)c2ccc(S(=O)(=O)N3CCOCC3)cc2)cccc1[N+](=O)[O-] | -2 | 6.9 | . | . | .
N#C/C(=C1/CCCCCN1)c1nnc2n1CCCCC2 | -6 | 0.9 | -3% | -38 | 4 | Arbovirus inh repeat=0
Cc1nc2ccccc2n1CC(=O)OCC(=O)NCc1ccccc1 | 10 | -0.1 | -4% | . | -6
CCCS(=O)(=O)c1c(S(=O)(=O)CCC)c2c(C)cccn2c1C(=O)OC | 2 | 0.7 | 2% | 5 | -2
CC(=O)Oc1ccc(C2(C)CC(C)(C)Oc3cc(OC(C)=O)ccc32)c(OC(C)=O)c1 (centres undefined) | -1 | 29 | . | . | .
Cc1ccc(C)c(S(=O)(=O)N2CCN(C(=O)c3sccc3C)CC2)c1 | -3 | 3.2 | . | . | .
NS(=O)(=O)c1ccc(CNC(=O)/C=C/c2cccc(Cl)c2)cc1 | 29 | -0.8 | 9% | -4 | 3
Cc1ccc(NC(=S)N2CCN(S(=O)(=O)c3ccc(F)cc3)CC2)cc1 | -6 | 2.1 | . | . | .
COc1ccc(OCCCC(=O)Nc2cc(Cl)ccc2-n2cncn2)cc1 | -2 | 3.2 | . | . | .
Cc1ccc(C(=O)COc2ncnc3cc(Cl)ccc23)cc1 | 4 | 0.4 | -17% | . | .

The closing two records of the part above come first, to join the parts.
SMILES | Mtb betalactam | RecA splice inh | Mtb H37Rv | YopH PTP inh | Arbovirus inh | others
COc1ccc(OCCCC(=O)Nc2cc(Cl)ccc2-n2cncn2)cc1 | -2 | 3.2 | . | . | .
Cc1ccc(C(=O)COc2ncnc3cc(Cl)ccc23)cc1 | 4 | 0.4 | -17% | . | .
CCC(=O)c1ccc(OCC(=O)OCC(=O)N2c3ccccc3NC(=O)C2(C)C)cc1 | -6 | -1.3 | . | . | .
Cc1ccc(C)c(NC(=S)N2CCN(c3ccccn3)CC2)c1 | 0 | -4.3 | . | . | .
COc1cc(/C=N/NC(=O)c2cccnc2)cc2c1OCO2 | 2 | 0.7 | . | . | .
CC(=O)N(CC1CCCO1)C1(C(=O)NC2CCCC2)CCCCC1 (centres undefined) | -18 | 1.8 | 2% | 9 | 7
O=C(CCCCCNC(=O)N1CCn2c1nc1ccccc12)N[C@@H](Cc1ccccc1)C(=O)O | 2 | 3.3 | . | . | .
COc1ccc(/C=C(/C#N)C(=O)Nc2cc(C)ccc2C)cc1C(=O)O | -3 | -3.1 | . | -6 | 3
CCC(c1nnnn1C1CCCCC1)N1CCN(C(=O)c2ccco2)CC1 (centres undefined) | 3 | 1.5 | . | . | .
CCCN(CCC)CC(O)COc1ccc2c(c1)OCO2 (centres undefined) | -2 | -1.2 | 3% | . | -2
COCc1cc(C)nc(N/N=C/c2ccc(-c3ccc(C(=O)O)c(Cl)c3)o2)c1C#N | 0 | -0.7 | -8% | . | 4
CCCc1ccc(OCC(=O)NNC(=S)NC(=O)c2ccco2)cc1 | 98 | 4.1 | ? | -15 | -40
Cc1ccc(NC(=O)N(C2CCCCC2)C(C)c2cccnc2)cc1C (centres undefined) | -1 | -0.3 | 2% | -24 | 7
CCN1C(C)=C(C)S/C1=C1\SC(=S)N(NC(C)=O)C1=O | 1 | -2.0 | 7% | . | 1
COc1ccc(/C=N/N=C(\N)c2nonc2N)cc1 | . | -1.8 | 0% | . | -5
COc1ccc(/C=N/Nc2nnc(Cc3ccc(OC)c(OC)c3)c(=O)[nH]2)cc1 | 2 | 0.1 | 3% | -24 | -3
COc1ccc(NC(=O)C2C3C=CC(C3)C2C(=O)NCc2ccco2)c(OC)c1 (centres undefined) | -6 | 2.6 | 1% | -26 | 8
O=C(Nc1nn(Cc2ccc(Cl)cc2)cc1Br)c1ccc(COc2ccccc2Cl)o1 | 60 | 7.2 | 10% | -23 | -25
Cc1ccc(Oc2ncccc2NC(=O)CC2(CC(=O)O)CCCC2)c2c1CCC2 | 0 | -2.7 | 4% | . | .
CC(=O)N1CCCc2cc(S(=O)(=O)N3CCCC(C(=O)NCc4ccc(Cl)cc4)C3)ccc21 (centres undefined) | 2 | -3.7 | . | . | .
Cn1c(=O)[nH]c(=O)c2c1nc(N1CCCCCC1)n2CCSc1nc2ccccc2[nH]1 | -5 | -0.6 | -2% | -1 | 2
O=C(CCc1nnc(COc2ccccc2)o1)NCc1ccccc1 | -2 | -2.7 | 2% | . | 2
CCCCC(=O)N(c1ccc(C)c(C)c1)C1C=CS(=O)(=O)C1 (centres undefined) | -10 | -4.4 | -1% | -29 | 2
CC(C)CC(NC(=O)/C(=C\c1ccco1)NC(=O)c1ccco1)C(=O)O (centres undefined) | -7 | 0.3 | . | . | .
CC(=O)NCCC(=O)Nc1cc(S(=O)(=O)N2CCCCC2)ccc1N1CCN(C)CC1 | -3 | -3.8 | . | . | .
O=C(NCCN1CCOCC1)c1cccn2c(=O)c3c4c(sc3nc12)CCCC4 | -2 | -0.5 | 0% | . | .
COc1cccc2cc(-c3nnc(SCC(=O)Nc4ccc(NC(C)=O)cc4)n3C)oc12 | 14 | -1.6 | . | . | .
NC(=O)c1cc(NC(=O)CCCc2nc3ccccc3s2)cc(C(N)=O)c1 | -3 | -0.2 | -5% | . | .
CCCCc1nc(Cl)c(C#N)c2c1CCCC2 | 6 | 6.4 | -3% | -20 | 11
CCC(=O)N1CCN(c2ccc(NC(=O)c3cc4ccccc4o3)cc2Cl)CC1 | 99 | 8.0 | . | -25 | -41
COc1ccc2nc(Nc3nc4ccc(NC(C)=O)cc4s3)sc2c1 | 82 | -1.0 | 71% | -28 | -4
COc1ccc(NC(=O)c2cc3c(=O)n(C)c4ccccc4c3s2)cc1OC | 5 | 1.3 | -5% | . | -14
CN(C(=O)c1ccccc1Br)C1CCS(=O)(=O)C1 (centres undefined) | -4 | -2.6 | . | . | .
Cc1cccc(OC(=O)c2sc(Cl)nc2C)c1 | 11 | 12 | 26% | -20 | -3
CSc1ccc(Cc2ccc(Cl)cc2Cl)nn1 | -1 | 1.0 | -17% | -6 | 0
COc1ccccc1Cn1c(=S)[nH]c2cc(C(=O)NCC(OC)OC)ccc2c1=O | 9 | -3.3 | . | . | .
COc1ccc(N2CCN(CCNC(=O)CCS(=O)(=O)c3cccc4nsnc34)CC2)cc1 | 1 | -6.4 | 1% | -27 | 1 | Arbovirus inh repeat=1
C=CCNC(=S)NNC(=O)CCC(O)COCCC(C)C (centres undefined) | 2 | 5.4 | 3% | . | 0
COC(=O)c1ccccc1OCCOc1ccccc1C(=O)OC | 0 | -1.6 | -4% | -4 | 4
CCC(=O)N(Cc1cc(=O)[nH]c2ccccc12)c1ccc(C)cc1C | -7 | 2.2 | . | . | .
CCOc1cc(C(=O)Nc2cccc3ncccc23)cc(OCC)c1OCC | 2 | 0.6 | 4% | -27 | 1
CCOC(=O)CSc1nc2cc(C(=O)NCC3CCCO3)ccc2c(=O)n1Cc1ccco1 (centres undefined) | -3 | 1.7 | -3% | 1 | -8
CC(=O)Nc1c(C(=O)N2CCOCC2)cnn1-c1ccc(C)c(C)c1 | -9 | 2.6 | -1% | 5 | 1
COc1cc(NC(=O)CN(C)S(=O)(=O)c2ccc3c(c2)CC(C)N3C(C)=O)cc(OC)c1 (centres undefined) | 0 | -7.3 | . | . | .
Cc1ccc(C(=O)CC2SC(N)=NC2=O)cc1 (centres undefined) | -6 | -1.9 | -6% | -5 | 1
CC(NC(=O)CSc1cccc(C(F)(F)F)c1)c1ccccc1 (centres undefined) | 1 | 1.0 | 4% | -17 | -14
CCC[C@H](N[C@@H](CCC)[C@H](O)c1ccccc1)[C@H](O)c1ccccc1 | -10 | 0.5 | . | . | .
Cc1cccc(N(Cc2ccccc2)C(=O)c2ccc(CS(C)(=O)=O)cc2)c1 | 1 | 0.5 | . | . | .
COCC(C)NC(=O)CSc1nc2nn(-c3ccccc3)c(=O)c-2c2n1CCCCC2 (centres undefined) | 1 | 6.0 | -1% | . | 3
COc1ccc(-c2nnn(CC(=O)N(CCCN3CCOCC3)C(C(=O)NC3CCCC3)c3ccco3)n2)cc1 (centres undefined) | -11 | -4.5 | -6% | . | 1
O=C(NCc1ccc2c(c1)OCO2)c1cccs1 | 7 | 1.7 | 1% | -28 | 4
CCn1c(O)c2ccc(C(=O)N=NC(=O)c3ccccc3)cc2c1O | 0 | -1.0 | . | . | .
C[C@]12C=CC(=O)C=C1CC[C@@H]1C2[C@@H](O)C[C@@]2(C)C1CC[C@]2(O)C(=O)COC(=O)CCC(=O)O (some centres undefined) | 1 | 0.2 | . | . | .
Cc1cc(N2C(=O)C(O)=C(C(=O)c3cccs3)C2c2ccc(F)cc2)no1 (centres undefined) | -10 | 4.0 | -11% | . | .
CCOc1ccccc1NC(=O)[C@@H](NC(=O)c1ccccc1F)C(C)C | -3 | 1.5 | . | . | .
CCc1ccccc1N(CC)C(=O)c1cn(CC)c(=O)c2cc(OC)c(OC)cc12 | -5 | 3.6 | -8% | -32 | -10
COc1cc(/C=C/C(=O)O)ccc1OCc1cnc(Cl)s1 | -9 | 0.2 | 1% | . | 3
COC(=O)c1cccc(C(=O)N2CCC(CCC(=O)NCc3ccc(F)cc3)CC2)c1 | 2 | 0.0 | . | . | .
O=C(CSc1nnc2ccc(-c3ccncc3)nn12)N1CCCCC1 | 0 | -2.3 | 6% | . | 8
CCOC(=O)C1C(=O)NC(c2ccccc2)=NC1c1ccc(OC)cc1 (centres undefined) | 1 | -0.5 | -1% | . | 1
O=C(CNC(=O)c1ccncc1)N/N=C/c1ccccn1 | 1 | 2.4 | 2% | . | 5
CCOC(=O)c1sc(NC(=O)CSc2nnc(Cc3ccccc3)o2)c(C(=O)OCC)c1C | 93 | 2.0 | 7% | -3 | -2

Three entries drawn at random from the list so far, as already listed:
SMILES | Mtb betalactam | RecA splice inh | Mtb H37Rv | YopH PTP inh | Arbovirus inh | others
COc1ccc(/C=N/Nc2nnc(Cc3ccc(OC)c(OC)c3)c(=O)[nH]2)cc1 | 2 | 0.1 | 3% | -24 | -3
O=C(CSc1nnc2ccc(-c3ccncc3)nn12)N1CCCCC1 | 0 | -2.3 | 6% | . | 8
CCCCC(=O)N(c1ccc(C)c(C)c1)C1C=CS(=O)(=O)C1 (centres undefined) | -10 | -4.4 | -1% | -29 | 2

Further structures follow.
SMILES | Mtb betalactam | RecA splice inh | Mtb H37Rv | YopH PTP inh | Arbovirus inh | others
Cn1c2ccccc2c2nnc(SCC(=O)Nc3cccc(C(=O)O)c3)nc21 | -7 | -0.2 | . | . | .
Cn1cccc/c1=N\c1cccc[n+]1C | -8 | -1.5 | -4% | . | .
Cc1ccc(S(=O)(=O)NCC(=O)N(CC(=O)NCc2ccccc2)CC2CCCO2)cc1 (centres undefined) | -13 | 0.9 | -1% | -34 | 3
CCCCNC(=O)n1c(=O)oc2ccc(Cl)cc21 | -1 | 0.3 | -3% | 0 | 6
COCc1nnc(NC(=O)CCc2ccc(OC)cc2)s1 | 4 | -1.0 | . | . | .
COC(=O)C1=C(C)NC(C)=C(C(=O)OCCN(C)Cc2ccccc2)C1c1cccc([N+](=O)[O-])c1 (centres undefined) | -1 | 7.4 | 1% | -19 | -43
Cc1ccc(-c2nnc(-c3ccccc3Br)o2)cc1 | 10 | 4.6 | . | . | .
O=C(CC1CCCCC1)Nc1ncn[nH]1 | 15 | 0.7 | 4% | -14 | 5

Two successive compounds out of the list so far, for reference:
SMILES | Mtb betalactam | RecA splice inh | Mtb H37Rv | YopH PTP inh | Arbovirus inh | others
CC(=O)N1CCCc2cc(S(=O)(=O)N3CCCC(C(=O)NCc4ccc(Cl)cc4)C3)ccc21 (centres undefined) | 2 | -3.7 | . | . | .
Cn1c(=O)[nH]c(=O)c2c1nc(N1CCCCCC1)n2CCSc1nc2ccccc2[nH]1 | -5 | -0.6 | -2% | -1 | 2
